# Bioassay records from PubChem BioAssay.
# CapD inh – inhibitors of Bacillus anthracis CapD enzyme | purified CapD enzyme, fluorescence intensity read-out; hits give low values; some hits fall short of the stated cut | z-score (test concentration not listed) | 140,000 tested, 0.23% active;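 active = z-score under -4 in either of two replicates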;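 also: stock transfer was 100 nL into about 40 µL; score is relative to mean and spread of the plate; one replicate is shown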
# AID504770 – E. coli YBA685 growth inhibition, screen for V. cholerae RctB inhibitors; z-score (concentration not given with the values); E. coli YBA685 rctB-dependent plasmid, OD600 growth, 3 h; hits give low values; AID 504770; 130,000 tested, 0.27% active;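 active = z-score under -2 on both plates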;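 also: wells of about 30 µL received 100 nL stock; score is relative to mean and SD of the test wells; the first replicate is given; strong numbers were not always called active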
# Starred values were filed as active, the others as inactive; x = not tested or not shown; & = joins results of further samples.
# Sample of the layout (2 entries):
canonical_smiles,CapD inh,AID504770
Cc1c(C(=O)NC(=S)Nc2ccc(Br)cn2)oc2ccccc12,-0.2,0.05
CCCn1c(=S)[nH]c2sc3c(c2c1=O)CCCC3,x,-0.35

# Results (from the top)
canonical_smiles,CapD inh,AID504770
Cc1c(C(=O)NC(=S)Nc2ccc(Br)cn2)oc2ccccc12,-0.2,0.05
CCCn1c(=S)[nH]c2sc3c(c2c1=O)CCCC3,x,-0.35
CCS(=O)(=O)N1CCN=C1SC(C)c1ccccc1 (stereo not drawn),0.05,0.45
Cc1ccc(C(=O)N/N=C2\CC3CC=CC23)c(C)c1 (stereo not drawn),x,0.45
N#CNC(=Nc1ccccc1)Oc1ccccc1,0.84,-0.95
CC(Sc1n[nH]c(N)n1)C(=O)Nc1ccccc1 (stereo not drawn),x,0.2
CCOC(=O)c1sc(SC)c(-c2ccccc2)c1N,-0.45,0.5
O=S(=O)(Cc1ccccc1)Nc1cccnc1,-0.23,-0.5
C=CCn1c(COc2ccccc2)nc2ccccc21,0.19,-0.1
N=c1c2cn[nH]c2nc(SCC(=O)c2ccc(Br)cc2)n1-c1ccc(Br)cc1,-0.11,x
CC(CNC(=O)c1ccccc1)C(=O)OCC(=O)[C@@]12OC(C)(C)O[C@@H]1CC1C3CCC4=CC(=O)C=C[C@]4(C)[C@@]3(F)[C@@H](O)C[C@@]12C (stereo partly drawn),0.25,x
CCOc1ccc(C(=O)NCCn2ccc3ccccc32)cc1OCC,-0.74,-0.9
C=CCNC(=S)N1CCNC(=O)C1CC(=O)Nc1cc(Cl)ccc1OC (stereo not drawn),0.48,1.1
NS(=O)(=O)c1ccc(CNC(=O)OCCCc2ccccn2)cc1,-0.78,x
CCCNC(=O)Cn1c2c(c(-c3ccccc3Cl)cc1=O)CCC2,4.2,-1.2
CNC(=O)c1cnc2cc(Cl)ccc2c1OC,-0.36,-0.45
Clc1ccc2nc(-c3ccccc3)cn2c1,22,0.9
Cc1c(Cl)cccc1NC(=S)NN(C)C,0.23,0.45
N#CC(C#N)=Cc1c[nH]c2ccccc12,-1.8,x
O=C(CN1C(=O)COc2ccccc21)N1CCCC1,x,0.95

# Other entries:
canonical_smiles,CapD inh,AID504770
COc1ccc(NC(=O)c2cc3cnccc3nc2C(F)(F)F)cc1,-0.63,x
CC(C)CCn1c(O)c(N=NC(N)=O)c2ccccc21,x,-1
CCn1cc(-c2cc(C(=O)O)c3ccccc3n2)cn1,x,-0.25
Cn1ccnc1-c1ccc(-c2nccn2C)cc1,x,-0.25
O/N=C(\Cn1cncn1)c1ccc(Cl)cc1Cl,-1.4,1.1
O=C(Nc1ccc(-c2nc3ccccc3[nH]2)cc1)c1ccc(-c2ccccc2)cc1,-0.45,0.45
CC1(C)CC(N2C(=O)c3ccccc3C2(O)Cc2ccccc2)CC(C)(C)N1 (stereo not drawn),0.63,0.6
COc1ccc2oc(=O)c(-c3csc(Nc4ccc(Oc5ccc6ccccc6c5Cl)c(Cl)c4)n3)cc2c1,-1.7,x
CC(NC1CCCC(C)C1C)C(=O)Nc1ccc2c(c1)OCCO2 (stereo not drawn),x,-0.15
Ic1ccc(Nc2nc3nonc3n3nnnc23)cc1,-2.1,-0.75
Cc1ccc(C2=NC(c3ccc(F)cc3)=Nc3ccc(Cl)cc3N2)o1,-1.2,0.4
Cc1ccc(C)c(COc2ccc(C)nc2N)c1,1.5,x
Cn1nc(C(F)(F)F)c(C=Nc2ccc(Cl)c(Cl)c2)c1Cl,-0.61,x
COc1ccccc1C=Nc1ccc2c(c1)nc(C)n2Cc1ccccc1,-0.4,-0.85
CCn1c(Cc2ccccc2)nnc1SCC(=O)Nc1ccccc1,x,0.1
COc1cc2c(c(OC)c1OC)-c1ccc(O)c(=O)cc1C(NC(C)=O)CC2 (stereo not drawn),-1.6,-0.45
Cc1ccccc1OCc1nnc2n1CC(C)S2 (stereo not drawn),-0.69,0.85
COc1ccc(/C=N/O)cc1COc1ccc(NC(C)=O)cc1,x,0
CC(C)C(NC(=O)c1ccc(C2SCC(=O)N2Cc2ccco2)cc1)C(C)C (stereo not drawn),x,-1.1
Nc1ccn(C2OC(CO)C(O)C2O)c(=O)n1 (stereo not drawn),5.9,x

# (next part)
canonical_smiles,CapD inh,AID504770
O=S(=O)(CCSc1cccs1)c1ccccc1,0.22,x
O=C1c2ccccc2C(=O)N1CCCc1nc2ccccc2c(=O)n1CCCn1ccnc1,-1.2,x
CC1=C(C(=O)Nc2ccccc2)C(CC(C)C)n2ncc(C(=O)Nc3ccccc3)c2N1 (stereo not drawn),1.7,1.3
CCC(=O)Nc1c(Cl)nc(C)c(Cl)c1C,0.72,1.2
Cc1ccc(N/C(=C/C(=O)c2ccccc2)C(=O)O)cc1Br,-3.3,-0.1
COC(=O)c1ccc(-c2cn3cccnc3n2)cc1,8,2.5
CC1(C)CC(CC#N)(c2ccccc2)CCO1 (stereo not drawn),x,0.15
O=C(CC1SC(=O)NC1=O)Nc1ccccc1 (stereo not drawn),-0.76,x
Cn1c(=NC(=O)c2cccc(OC(F)F)c2)sc2ccccc21,x,0.55
CC(C)(C)NS(=O)(=O)c1ccc(N2CCCC2=O)cc1Cl,x,-0.25
N#C/C(=C/c1ccccc1)C(=O)N/C=N/OCc1ccc(Cl)c(Cl)c1,-0.54,x
CC(C)(C)c1ccc(OCC(=O)n2ncc(C#N)c2N)c(C(C)(C)C)c1,0.53,0
NS(=O)(=O)c1ccc(Oc2c(Cl)cccc2[N+](=O)[O-])cc1,0.03,x
CC(=O)Nc1ccc(S(=O)(=O)N2CCC(c3nc(-c4ccc5c(c4)OCO5)no3)CC2)cc1,-0.04,x
Cc1ccccc1OCc1nc2ccccc2c(=O)n1/N=C/c1ccco1,x,1.1
Cc1cccc(-n2c(N)cc(=O)nc2SCC(=O)NC2CCCCC2)c1,0.035,-0.1
O=C(c1cc2nc(-c3ccccc3)cc(C(F)(F)F)n2n1)N1N=C(C(F)F)CC1(O)C(F)F (stereo not drawn),4.6,-0.6
COc1ccc(OC)c(NC(=O)c2cnn3c(C(F)(F)F)cc(-c4ccc(OC)c(OC)c4)nc23)c1,0.78,x
CCOC(=O)C1=C(N)n2c(s/c(=C\c3ccc(C(C)C)cc3)c2=O)=C(C#N)C1c1ccc(C(C)C)cc1 (stereo not drawn),-0.2,x
BrCCOc1cccc(Br)c1,-0.27,0.7

# (further entries)
canonical_smiles,CapD inh,AID504770
O=C(N/N=C/c1c[nH]c2ccccc12)c1cccc(O)c1,-0.59,-0.7
Cc1cccc(C(=O)Nc2ccc(NC(=O)c3ccco3)cc2)c1,16,0.85
COc1ccc(/C=C2\C=C(c3ccccc3)N(c3ccc4ncccc4c3)C2=O)cc1Br,0.28,x
CC(C)n1c(NCc2ccccc2O)nc2ccccc21,-0.055,1.4
CC(=O)N1CCc2ccc(NS(=O)(=O)c3cccc(C(F)(F)F)c3)cc21,-0.59,x
CC1=C(C(=O)N2CCOCC2)C(c2ccc(C(F)(F)F)cc2)C2=C(CCCC2=O)N1 (stereo not drawn),54,-0.1
COc1ccc2cc3c(N)nn(C(=O)Cc4c(F)cccc4Cl)c3nc2c1,0.44,-0.5
O=C(Nc1ccccc1Oc1ccc(Cl)cc1Cl)c1cccs1,0.21,x
O=C(OCc1ccc(Cl)cc1)c1cccs1,0.1,0.35
CN(C)C(=S)Nc1ccccc1,0.14,-0.4
O=c1[nH]c2ccccc2nc1NC(=S)Nc1ccccc1,-0.64,0.45
C=C(C)CC1C(=O)NN=C1C (stereo not drawn),0.24,-0.8
CSc1nsc(SC)c1NC(=O)OCCc1ccccn1,0.05,0.5
CCCNC(=O)c1c(C)c(C(=O)OCC)n(CC)c1C,-0.14,-1.8
N#C/C(=C(/O)c1ccco1)c1nc2ccccc2s1,-0.94,0.05
CCOC(=O)CC(C(=O)OCC)C1SCC(=O)N1NC(=O)c1ccc2[nH]c(C)c(C)c2c1 (stereo not drawn),-0.39,x
C=CCC1C(=O)NN=C1CCC (stereo not drawn),0.52,x
S=C(SCc1ncon1)N1CCCC1,-0.06,-0.7
Nn1c(SCC(=O)c2ccc[nH]2)nnc1SCC(=O)c1ccc[nH]1,x,-0.05
COc1ccc(CCNC(=O)CCc2nnc3n(C)c(=O)c4sccc4n23)cc1OC,-0.18,0.35

# (cont.)
canonical_smiles,CapD inh,AID504770
CCN1C(=O)CSc2ccc(C(=O)NC(C)C)cc21,x,-0.6
COc1ccc(NC(=O)CC(C)(C)CC(=O)O)cc1OC,-1.2,0.1
N#CC(=C=[N-])c1nc2ccccc2nc1-[n+]1ccccc1,x,0.6&-0.75
CC(=O)N1CCC(N(c2ccc3c(c2)CCN3C(C)=O)S(=O)(=O)c2cccc(C(F)(F)F)c2)CC1,-0.36,x
CC(C)Cn1c2ccccc2c2cc(C(=O)O)ccc21,10,-0.3
Cc1ccc(Sc2c([N+](=O)[O-])c(=O)n(C)c3ccccc23)cc1,-0.85,x
CSCc1cccc(C(=O)O)c1,x,-1.2
O=C(CNS(=O)(=O)c1ccccc1F)OCc1nc2ccccc2s1,x,-0.3
O=c1oc2c3c(c(Cl)cc2c2c1CCC2)OCN(Cc1ccccc1)C3,105,0.2
CN1CN=C(SCc2cccc(C#N)c2)NC1,-0.7,-1
CCOC(=O)c1c(C)nc2ccccc2c1N,4.5,-1.2
CCOC(=O)c1cnc(N2CCCCC2)nc1C,0.36,0.4
CS(=O)(=O)c1ccc(CSCCNC(=O)c2c(F)cccc2F)cc1,-0.22,x
COC(=O)COc1cc(O)c2c(=O)c(-c3ccc4c(c3)OCCO4)coc2c1,x,1.6
Cc1ccc(S(=O)(=O)c2c(CO)c(-c3ccccc3)nn2C)cc1,0.26,-0.3
N#CC1=C(N)N(c2ccc(Br)cc2F)C2=C(C(=O)CCC2)C1c1ccc([N+](=O)[O-])cc1 (stereo not drawn),0.45,x
COc1cc2ccc(=O)oc2cc1O,0.25&1.2,0
CCOC(=O)C1=C(N)Oc2cc(O)ccc2C1c1ccccc1Cl (stereo not drawn),-0.44,x
Cc1ccc(Cl)cc1N(C)C(=O)c1cc2c(-c3ccc(Cl)cc3)nn(C)c2s1,0.085,-0.65
CC(=O)N1CCC(c2c[nH]c3ccccc23)CC1,0.14,-0.3

# Looked up one by one from the entries so far (6):
canonical_smiles,CapD inh,AID504770
CSCc1cccc(C(=O)O)c1,x,-1.2
CS(=O)(=O)c1ccc(CSCCNC(=O)c2c(F)cccc2F)cc1,-0.22,x
CC(C)Cn1c2ccccc2c2cc(C(=O)O)ccc21,10,-0.3
O=c1oc2c3c(c(Cl)cc2c2c1CCC2)OCN(Cc1ccccc1)C3,105,0.2
COc1ccc(NC(=O)CC(C)(C)CC(=O)O)cc1OC,-1.2,0.1
Cc1ccc(Cl)cc1N(C)C(=O)c1cc2c(-c3ccc(Cl)cc3)nn(C)c2s1,0.085,-0.65

# Other results:
canonical_smiles,CapD inh,AID504770
CCOC(=O)C1=C(SCC)c2cc3c(n2C1=O)CCCC3,x,-0.25
NCCSC12CC3CC(CC(C3)C1)C2,0.14,1.3
CC1CN(C(=O)Cn2nc(C(=O)O)c3ccccc3c2=O)CC(C)O1 (stereo not drawn),x,0.1
O=c1oc(-c2ccc(Br)cc2)nc2sc3c(c12)CCCC3,-0.05,x
COc1ccc(-c2csc(N)n2)cc1C,x,1.1
COc1ccccc1C1CC(c2c(-c3ccccc3)c3cc(Cl)ccc3[nH]c2=O)=NN1C(=O)CN1CCCC1 (stereo not drawn),-0.13,x
CCN(CC)C(=O)c1ccc2nc(N)sc2c1,x,2
N#C/C(=C/c1ccccc1)c1ccc(C#N)cc1,-0.14,0.2
CC1CCN(S(=O)(=O)N2CCCC(C(=O)Nc3ccccc3C(=O)c3ccccc3)C2)CC1 (stereo not drawn),-0.77,1.2
Fc1ccc(-c2nnc(Cc3nnc(-c4ccc(F)cc4)o3)o2)cc1,-0.17,-0.2
COc1ccccc1NC(=O)Cc1nn(C)c(=O)c2ccccc12,0.12,-0.65
O=C(NNC(=O)c1ccc2n[nH]nc2c1)c1ccc(Oc2ccccc2)cc1,-0.1,x
COc1ccc(/C=N/N(C)C2=NCCN2)c(OC)c1OC,-0.26,-0.2
O=C(O)c1ccccc1N1C(=O)c2ccccc2C1=O,14,0.5
CN(/N=C/c1ccccc1)C1=NS(=O)(=O)c2ccccc21,42,1.4
Oc1ccc(Br)cc1C=Nc1cccc(-c2nc3ccccc3o2)c1,x,-0.5
O=C(CCc1ccccc1)N/N=C/c1ccncc1,0.04,0.15
COc1cccc(C(=O)OCc2ccccc2C#N)c1O,x,-0.25
C#CCSc1nc(C)cc(C)c1C#N,0.93,x
CCN(CC)S(=O)(=O)c1ccc(C(=O)Nc2c3c(nn2-c2ccccc2C)CS(=O)(=O)C3)cc1,-0.4,x

# New compounds follow:
canonical_smiles,CapD inh,AID504770
CCOc1ccc2nnnn2n1,0.27,-0.25
CC(=O)c1ccc(Nc2cc(C)nc3ccccc23)cc1,4.2,x
C[n+]1[nH]oc(=O)c1-c1ccccc1,0.12,0.3
O=C(NC1CCN(c2nccc(C(F)(F)F)n2)CC1)c1ccco1,0.94,0.2
O=C(O)/C=C/c1ccc(Cl)c(Cl)c1,-0.9,-0.8
N#Cc1c(N)nc2c(c1-c1ccc(Cl)cc1)CCCC2,1.8,0.1
CCN1CCCC1CNC(=O)C1c2ccccc2C(=O)N(CC(C)C)C1c1cccs1 (stereo not drawn),-0.01,1.7
CCc1ccc(S(=O)(=O)c2cnc3ccccc3c2N2CCN(C)CC2)cc1,x,0.2
COC(=O)c1nn(-c2ccccc2)cc1OCC(=O)N1CCc2ccccc21,x,-0.05

# The list is partial. The share of hits here may be higher or lower than overall.
